# Compound activity (PubChem)
# Sfp PPTase inh = Sfp phosphopantetheinyl transferase inhibition; hit rate 3.5% among 310,000; Potency, µM, without a hit: max response, negative = inhibition, actives largely listed as inhibitors; Biochemical Sfp PPTase activity, qHTS; AID 1490; active = well fitted inhibition curve with a large enough effect; inconclusive = small, poorly fitted or top-dose-only effect, or another doubt; inactive = no such curve, though single readings can be large or run the other way;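 note: the enzyme is Sfp with the accession as filed and its product quenches rhodamine fluorescence; potency is the fitted concentration of half-maximal effect; 0% = enzyme reaction without inhibitor and -100% = no enzyme wells; top concentration of the series not given in the record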
#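 Step 1, compound plus 15 nM Sfp-PPTase, 15 min, room temperature. Step 2, add rhodamine-CoA (5 uM) and BHQ-2-YbbR (12.5 uM). Step 3, read 525/598 nm fluorescence at 0 and 30 min.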
# gsp antag = antagonists of gsp mutant (McCune-Albright syndrome). gsp-mutant cells, cAMP HTRF, 30 min; control for the full effect not named in the record. Potency, µM (highest dose often 76.9 µM), for the others: top-dose activity change, negative = inhibition, usual class: inhibitors. hit rate 0.4% among 340,000; active = falling curve of any shape with a large fitted effect; inconclusive = falling curve, mostly with a smaller effect; inactive = flat or rising curve; cell line not stated here;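 note: intracellular cAMP measured with PDE inhibitor Ro 20-1724 present during compound exposure; potency is the fitted concentration of half-maximal effect; % is set by controls: 0 for no effect and ±100 for the full control effect; nearly all actives have a fitted effect of over 65% in size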
#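 HTRF cAMP read-out (cAMP-d2 plus anti-cAMP antibody-K in lysis buffer, 30 min RT). Before lysis, cells are exposed to compounds with […] for 30 min at 37C in DPBS containing Ca/Mg, BSA and Tween 20.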
# ClpP mod = qHTS Assay for Activators of ClpP; hit rate 1.9% among 340,000; ATP-dependent Clp protease proteolytic subunit (Bacillus subtilis (strain 168)), P80244; purified B. subtilis ClpP, FRET peptide cleavage, 20 min; Potency, µM (series often up to 57.5 µM), for the others: top-dose activity change, negative = active; active = well fitted falling curve with a large enough effect; inconclusive = small, poorly fitted or top-dose-only effect; inactive = no such curve, though single readings can be large or run the other way; note: potency is the fitted concentration of half-maximal effect; the source files actives as falling curves though it sought activators and does not explain the sign; nearly all actives have a fitted effect of over 65% in size; many hits overshoot -100%
# Target sequence (P80244 whole entry, looked up): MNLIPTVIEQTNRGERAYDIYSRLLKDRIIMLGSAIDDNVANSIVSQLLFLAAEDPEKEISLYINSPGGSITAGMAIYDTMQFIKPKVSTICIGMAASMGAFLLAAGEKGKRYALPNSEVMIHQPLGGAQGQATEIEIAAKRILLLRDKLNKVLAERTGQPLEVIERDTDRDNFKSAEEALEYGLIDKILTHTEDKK
#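 ClpP 10 microg/mL final, pH 8 Tris/KCl buffer with BSA, glycerol, Tween-20; compound pinned in; FRET-FV substrate; RT 20 min; Ex320/Em430; ΔFRET vs ADEP 5.8 microM, DMSO, no enzyme.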
# TRPV1 PAM = potentiators of human vanilloid receptor 1 (TRPV1); Q8NER1; TRPV1-expressing cells, Fluo-8 calcium influx, capsaicin EC20 potentiation; host cell line not named in the record; control for the full effect not named in the record; potentiation, % at 8.33 µM; hit rate 0.02% among 320,000; AID 540277; active means potentiation above 80%; inconclusive means 30% to 80%; inactive means below 30%; note: 0% is about no effect
# Target sequence (Q8NER1 whole entry, looked up): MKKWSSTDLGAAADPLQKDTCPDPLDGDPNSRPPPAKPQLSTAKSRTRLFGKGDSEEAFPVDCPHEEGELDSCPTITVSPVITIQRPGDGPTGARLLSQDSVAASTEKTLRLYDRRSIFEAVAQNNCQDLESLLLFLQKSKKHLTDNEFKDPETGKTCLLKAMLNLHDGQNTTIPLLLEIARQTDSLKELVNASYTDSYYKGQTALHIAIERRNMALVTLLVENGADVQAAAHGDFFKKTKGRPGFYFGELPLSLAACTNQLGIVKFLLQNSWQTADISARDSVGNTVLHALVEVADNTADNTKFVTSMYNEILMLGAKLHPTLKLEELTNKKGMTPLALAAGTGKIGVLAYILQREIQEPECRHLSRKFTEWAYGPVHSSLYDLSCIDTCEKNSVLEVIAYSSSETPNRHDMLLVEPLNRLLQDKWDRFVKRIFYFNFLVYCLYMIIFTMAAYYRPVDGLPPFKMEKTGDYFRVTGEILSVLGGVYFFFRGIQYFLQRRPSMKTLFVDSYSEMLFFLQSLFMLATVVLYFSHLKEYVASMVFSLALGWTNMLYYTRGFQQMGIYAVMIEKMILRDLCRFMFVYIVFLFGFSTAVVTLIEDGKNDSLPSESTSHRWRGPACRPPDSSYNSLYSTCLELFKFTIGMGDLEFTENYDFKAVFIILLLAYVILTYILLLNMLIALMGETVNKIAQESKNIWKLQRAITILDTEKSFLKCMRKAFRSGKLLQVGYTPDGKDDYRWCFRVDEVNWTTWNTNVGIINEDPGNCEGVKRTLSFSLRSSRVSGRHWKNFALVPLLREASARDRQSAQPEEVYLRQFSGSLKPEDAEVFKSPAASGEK
#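 Fluo-8 calcium influx in TRPV1-expressing cells, kinetic read (ex 480/em 520 nm). Compound added and read 3 min for agonist activity, followed by capsaicin at EC20 final and 2 min further read for enhancement.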
# TRPML1 inh = blocks the human TRPML1 channel. AID 624415. hit rate 0.02% among 390,000. Q9GZU1. activity change, negative = inhibition, % (no concentration beside the values). TRPML1-inducible cells, Ca2+ dye fluorescence, FDSS; hits give low values; inhibition of EC80 agonist-evoked calcium signal; in the data active means activity change below about -50%; inconclusive means about -30% to -50%; inactive means above about -30%;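 note: stimulus is agonist 54-4 at its EC80 concentration; % is set by controls: 0 for no effect and ±100 for the full control effect; compound concentration not given in the record; the text of the record puts the active cut at -80%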
#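 TRPML1-DL cells, Tet-induced overnight (~16 h, 37 °C) at 1,500 cells/well, were loaded with Ca8 no-wash dye plus quencher for 45-90 min at room temperature. Compounds were pinned during FDSS kinetic reading; agonist 54-4 at EC80 (4 uM final) then added.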
# gsp ag = activates gsp, the McCune-Albright syndrome mutation. Potency, µM (doses to about 76.9 µM), without a hit: at the highest dose activation (cAMP increase), most hits filed as activators. AID 624287. gsp mutant cells, cAMP HTRF, 30 min; control for the full effect not named in the record. hit rate 0.13% among 340,000; active = well fitted activation curve with a large enough effect; inconclusive = small, poorly fitted or top-dose-only effect, or another doubt; inactive = no such curve, though single readings can be large or run the other way; cell line not stated here;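 note: phosphodiesterase inhibitor Ro 20-1724 added with compounds to block cAMP breakdown; potency is the fitted concentration of half-maximal effect; nearly all actives have a fitted effect of over 60% in size; about a fifth of the inactives were tested at one dose only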
#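 Cells in DMEM/10% FBS with G418 were pretreated with compounds in DMSO plus […] (300 uM stock) for 30 min at 37C. cAMP was measured by HTRF (cAMP-d2 plus anti-cAMP antibody-K) after 30 min at room temperature.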
# Menin MLL FP FL = menin-MLL binding inhibition, fluorescein peptide | AID 1766 | FP activity change, % at 61.4 µM | 290,000 tested, under 10 active | Fluorescence polarization, fluorescein-MLL peptide displacement from menin; inconclusive = falling polarisation curve, or a change in total fluorescence; inactive = total fluorescence flat and polarisation flat or rising; no compound was filed as active; the % refers to the polarisation; negative = inhibition;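 note: % of control where 0% means no effect; inhibitors lower the polarisation; unlabelled MLL peptide was the positive control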
# Numbers without * were called inactive; ? = inconclusive; / = not tested or not shown; & = joins results of further samples; [ ] = another dose, or the depositor's remark.
SMILES,Sfp PPTase inh,gsp antag,ClpP mod,TRPV1 PAM,TRPML1 inh,gsp ag,Menin MLL FP FL
O=C1c2ccccc2C2=Nc3ccccc3SC(c3cccc(F)c3)C12 (centres undefined),10%,-10%,0.5%,-1,-20,-3%,0.2
Cc1ccc(N(CC(=O)NCCc2ccccc2)S(=O)(=O)c2c(C)noc2C)cc1,-1%,-3%,0.8%,-11,7,-10%,-0.4
O=C(O)CCC(=O)Nc1ccc(Br)cc1C(=O)c1ccccc1Cl,15%,-17%,-1.2%,7,4,-3%,2.6
C=CCN1CCc2c(cc(O)c(O)c2Cl)C(c2ccccc2)C1 (centres undefined),?,0%,0.8%,25,-6,/,2.2&4.8
Cc1sc2nc(SCC(=O)Nc3c(C)n(C)n(-c4ccccc4)c3=O)n(C)c(=O)c2c1C,50µM*,0%,-0.4%,7,-14,-27%,5.8
CSc1nc(NCC(C)C)c2c3c(sc2n1)CN(C)CC3,8%,6%,?,4,-4,5%,4.3
COc1nc(-c2ccccc2)c2c(c1C#N)CC(C)(C)OC2,13%,-6%,31%,-4,5,-18%,4.1
O=C(CN1C(=O)COc2ccccc21)NCCCN1CCCCC1,13%,20%,0.4%,8,13,?,/
CN(C)C(CNC(=O)c1ccc(NS(=O)(=O)c2ccc(F)cc2)cc1)c1ccco1 (centres undefined),/,-1%,/,-7,2,16%[15.4 µM],/
CCc1ccc(C(=O)N2CCC(c3nc4ccccc4s3)CC2)cc1,-2%,?,-1.8%,-16,19,1%,3.2
CCCC(=O)NC(C)C(c1cccs1)N1CCN(c2ccccc2)CC1 (centres undefined),-18%,5%,-0.6%,-3,18,-17%,-1.8
C/C=C(\C)C(=O)Nc1cccc(C2=NOC3(C2)C[C@@H](C(N)=O)N(C(=O)/C(C)=C/C)C3)c1 (some centres undefined),8%,6%,-0.4%,-15,13,13%,-8.6
NC(N)=NCC(O)CN(c1ccccc1)c1ccccc1 (centres undefined),-4%,6%,/,9,2,8%,-3.3
Cc1ccc(-n2c(C)cc(C(=O)CSc3nnc4ccccn34)c2C)cc1,-6%,-9%,-1.7%,1,-15,33%,3.3
Cc1ccc(SCCC(=O)N2CCCC2)cc1,13%,-7%,-0.3%,16,-1,3%,-0.1
COc1ccccc1CN1CCNC(=O)C1CC(=O)N(C)Cc1cnccn1 (centres undefined),-13%,11%,/,1,3,11%[15.4 µM],-0.1
CCN(CC)S(=O)(=O)c1ccc(NC(=O)c2cccnc2Cl)c(NC(=O)c2cccnc2Cl)c1,23%,-12%,/,0,13,10%[15.4 µM],-5.9
CC1CCCC(C)N1C(=O)COC(=O)c1nn(C)c(=O)c2ccccc12 (centres undefined),8%,-11%,-0.5%,-14,-5,?,1.5
CN(C(=O)COC(=O)c1ccccc1NCc1ccco1)c1c(N)n(Cc2ccccc2)c(=O)[nH]c1=O,/,-6%,/,-3,5,-3%[15.4 µM],/
O=C(N/N=C/c1ccccc1O)c1cccc(C(F)(F)F)c1,21%,-3%,4.5%,-29,8,-2%[15.4 µM],/
Cc1nc(NC(=O)CN(C)S(=O)(=O)c2ccc(Cl)cc2)sc1C,4%,-20%,-1.7%,5,18,-6%,1.4
COc1ccccc1C(=O)N1CCN=C1SCc1cccnc1,13%,1%,-2.5%,-1,5,3%,3.1
O=C(Cc1csc(N2CCOCC2)n1)N/N=C/c1ccc(F)cc1,2%,1%,-2.8%,3,24,-64%[inhibitor],0.2
CCCS(=O)(=O)N1CCCC(C(=O)NCCCN2CCN(c3ccc(F)cc3)CC2)C1 (centres undefined),3%,5%,-4.4%,-16,1,11%,6.9

# Record cards, as listed above.
# Shown for COc1ccccc1CN1CCNC(=O)C1CC(=O)N(C)Cc1cnccn1 (centres undefined) → Sfp PPTase inh: -13%; gsp antag: 11%; ClpP mod: /; TRPV1 PAM: 1; TRPML1 inh: 3; gsp ag: 11%[15.4 µM]; Menin MLL FP FL: -0.1
# Shown for CC1CCCC(C)N1C(=O)COC(=O)c1nn(C)c(=O)c2ccccc12 (centres undefined) → Sfp PPTase inh: 8%; gsp antag: -11%; ClpP mod: -0.5%; TRPV1 PAM: -14; TRPML1 inh: -5; gsp ag: ?; Menin MLL FP FL: 1.5

# Other entries.
SMILES,Sfp PPTase inh,gsp antag,ClpP mod,TRPV1 PAM,TRPML1 inh,gsp ag,Menin MLL FP FL
CCOC(=O)COc1ccc(S(=O)(=O)NCc2ccncc2)cc1,18%,-22%,0.4%,-16,-10,-22%,2.3
CCn1ncc(Br)c1C(=O)Nc1ccc(F)c([N+](=O)[O-])c1,19%,-4%,-5.0%,-10,-21,1%,0.5
Cc1cccc(NCN2C(=O)c3ccccc3C2=O)c1,21%,3%,-1.2%,0,-2,-66%[inhibitor],3.3
Cc1c(NC(=O)c2cc(-c3ccc(Cl)cc3)on2)c(=O)n(-c2ccccc2)n1C,-5%,0%,-0.8%&0.3%,-3,9&-5,1%[15.4 µM],-2.2
CC1CC2(CCCCC2)N2C(=O)C(=O)c3cccc1c32 (centres undefined),6%,-23%,3.3%,-9,38,25%,2.8
CC(=NCc1ccccc1)C1=C(O)COC1=O,-5%,2%,-1.0%,-16,-11,-1%,1.9
N#Cc1c(NCCCO)nc(-c2ccccc2)c2c1CCCC2,16%,-14%,?,-14,-4,-18%,-1.5
Cn1c(=O)c2c(SCC(=O)N3CCCc4ccccc43)nc(C3CC3)nc2n(C)c1=O,-2%,-10%,1.4%,2,1,25%,0.7
CCC(C)(C)NC(=O)c1ccc2c(c1)N(CC(=O)NC1CCCC1)C(=O)C(C)(C)O2,2%,3%,/,4,0,6%,/
Cc1ccc(S(=O)(=O)N(Cc2ccc(Cl)cc2)c2ccccc2C(=O)O)cc1,6%,0%,-3.2%,8,25,-5%[15.4 µM],5.8
CC(Oc1ccc2c3c(c(=O)oc2c1)CCC3)C(=O)NCC1CCC(C(=O)O)CC1 (centres undefined),19%,32µM*,4.8%,-7,/,/,2.1
CCC(C)n1c(SCC(=O)NC2CCCC2)nc2ccccc2c1=O (centres undefined),/,-18%,1.5%,-10,7,21%[15.4 µM],/
C=CCn1c2ccccc2c(=O)c2cc(C#Cc3cc(OC)cc(OC)c3)ccc21,/,-11%,4.0%,-5,14,/,/
O=C(N/N=C/c1ccccn1)c1ccc(Br)o1,18µM*,15%,-2.3%,2,0,9%,3.2
CCc1ccc(NC(=O)C2CCCN(S(=O)(=O)c3cnc[nH]3)C2)cc1 (centres undefined),16%,10%,1.3%,5,-2,-19%,0.8
CCCCN(CC)S(=O)(=O)c1ccccc1,1%,-15%,-2.1%,-9,11,?,2.3
CC(C)(C)NC(=O)C1CCCN(S(=O)(=O)c2ccc(-n3cnnn3)cc2)C1 (centres undefined),20%,10%,/,20,14,?,0.6
O=C(CN1CCN(c2ccccc2)CC1)NCc1ccc(F)cc1,1%,-4%,-3.0%,-8,-16,-2%,0.2
Clc1cccc(CN2CCN(c3ncccn3)CC2)c1Cl,-27%,3%,-3.2%,-18,27,0%,0.3
N#Cc1cnn2c(-c3ccc(Cl)cc3Cl)ccnc12,-11%,17%,/,-1,40,?,-0.6
Cc1cccn2c(=O)c(/C=C(\C#N)S(=O)(=O)c3ccccc3)c(N3CCN(c4ccccc4)CC3)nc12,4%,3%,-1.9%,-2,23,-22%,/
O=Cc1ccc(OCC(=O)Nc2ccccc2C(F)(F)F)cc1,7%,3%,-0.7%,17,2,0%[15.4 µM],5.5
O=C(COC(=O)c1ccccc1O)NCCc1c[nH]c2ccccc12,/,-2%,2.2%,/,-25,1%,/
O=C(CSc1nnc(C2CC2)n1C1CC1)c1cccs1,/,-5%,1.9%,/,29,6%,/
COc1ccc(-c2cc(C(=O)NCCc3ccccc3)no2)cc1OC,2%,9%,-27%,15,-3,-10%,2.0
Cc1nnc(NC(=O)CSc2nc3c(c(=O)n2CCc2ccccc2)SC(C)C3)s1 (centres undefined),6%,-5%,-0.8%,8,-3,-27%,0.7
COc1ccc(Cl)cc1NC(=O)CNc1ccc(F)cc1C,3%,-9%,0.2%,7,-12,0%,2.5
CC1CCCC(C)N1C(=O)CSc1ccc(-c2ccc3c(c2)OCCO3)nn1 (centres undefined),4%,-13%,/,-4,17,3%,3.5
CCCNC(=O)CS(=O)(=O)c1ccccc1,5%,13%,2.0%,-2,-5,/,-3.0
Cc1nn(-c2ccccc2[N+](=O)[O-])c(=O)c2ccccc12,19%,3%,1.1%,5,11,7%,2.0
CCOc1ccc(C(=O)Nc2c(C(N)=O)oc3ccccc23)cc1,2%,-14%,-6.0%,10,6,6%,3.3
COc1ccc(-c2nc3ccccc3n2OC(C)C(=O)O)cc1 (centres undefined),24%,1%,/,16,3,-9%[15.4 µM],-1.3
C#CCn1c(=NC(=O)c2cc(Cl)sc2Cl)sc2cc(S(N)(=O)=O)ccc21,-18%,-4%,?,9,-2,11%,9.3
O=c1c2cc(N3CCOCC3)ccc2[nH]c(=S)n1CCN1CCCC1,-9%,-10%,-4.6%,-17,10,20%,-0.6
Cc1ccc(Cn2ccc(NC(=O)c3cc(-c4cccs4)on3)n2)cc1,-22%,4%,215%,-1,4,6%,-1.0
COc1ccc(NC(=O)C(=O)NCCN2CCN(C(=O)c3cccs3)CC2)cc1,12%,9%,-0.9%,-9,-5,12%,5.4
CCCc1nc2ccc(NC(=O)c3ccco3)cc2c(=O)n1Cc1ccc(Cl)cc1,12%,-24%,-8.5%,7,32,-17%,4.7
CC(C)c1ccc(/C=C2\SC(N3CCCC3)=NC2=O)cc1,-9%,-3%,1.5%,-16,-11,8%,2.4
O=C1NC(c2ccccc2)=C(c2nc3ccccc3s2)C(c2ccc(F)cc2)N1 (centres undefined),?,5%,-7.3%,-4,6,-34%[inhibitor],1.8
CC1CCCC(C(=O)OCc2ccccc2)N1 (centres undefined),1%,13%,-0.4%,-7,-6,1%,4.0
CSCCC(NC(=O)COc1ccccc1)C(=O)N(C)Cc1ccc(F)cc1 (centres undefined),/,-8%,-0.2%,-22,40,-18%,/
COc1ccccc1NS(=O)(=O)c1cccc(C(=O)NCC(c2ccco2)N(C)C)c1 (centres undefined),/,-7%,-7.7%,29,-9,41%,/
